Six1-Eya2 blk = qHTS Assay for Inhibitors of the Six1/Eya2 Interaction. AlphaScreen GST-Six1/His-Eya2 binding, biochemical; active compounds read low; control for the full effect not named in the record. activity change, % (no concentration beside the values). actives 0.56% (n = 360,000). AID 651725, 2012; in the data active = activity change below about -65%; inconclusive = about -30% to -65%; inactive = above about -30%; also: % is scaled to controls: 0 for no effect and ±100 for the full control effect
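Homogeneous AlphaScreen proximity assay pairing GST-Six1 with His-tagged Eya2 (added as 5X mix: 250 nM and 500 nM) in 50 mM Tris pH 8.0, 300 mM NaCl, 1 mM TCEP. Glutathione donor and nickel acceptor beads; 1 h, 37 °C, dark.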
TRPV1 potentiator = HTS Assay for Compounds that Act as Potentiators of the Vanilloid Receptor 1; Transient receptor potential cation channel subfamily V member 1 (Homo sapiens), Q8NER1; TRPV1-expressing cells, Fluo-8 calcium influx, capsaicin EC20 potentiation; host cell line not named in the record; control for the full effect not named in the record; potentiation, % at 8.33 µM; actives 0.02% (n = 320,000); active means potentiation above 80%; inconclusive means 30% to 80%; inactive means below 30%; also: 0% is about no effect
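TRPV1-expressing cells were cultured overnight at 35.5C and loaded with Fluo-8 calcium dye for 40 to 90 min at room temperature. After a 10 s baseline, compound was added and calcium influx was read kinetically for 3 min (ex 480/em 520 nm).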
D2 potentiator = Beta-Arrestin HTS for Positive Allosteric Modulators of the Human D2 Dopamine Receptor: Potentiators | DiscoveRx D2 beta-arrestin cells, luminescence, 90 min; 100% = 57 uM dopamine signal | D(2) dopamine receptor (Homo sapiens), P14416 | actives 0.23% (n = 360,000) | potentiation, % (no concentration beside the values); active = potentiation of 50% or more; inconclusive = 30% to 50%; inactive = 30% or less;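 also: compound concentration not given in the record; tested on top of an EC20 dose of dopamine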
Target sequence (P14416 whole entry, looked up): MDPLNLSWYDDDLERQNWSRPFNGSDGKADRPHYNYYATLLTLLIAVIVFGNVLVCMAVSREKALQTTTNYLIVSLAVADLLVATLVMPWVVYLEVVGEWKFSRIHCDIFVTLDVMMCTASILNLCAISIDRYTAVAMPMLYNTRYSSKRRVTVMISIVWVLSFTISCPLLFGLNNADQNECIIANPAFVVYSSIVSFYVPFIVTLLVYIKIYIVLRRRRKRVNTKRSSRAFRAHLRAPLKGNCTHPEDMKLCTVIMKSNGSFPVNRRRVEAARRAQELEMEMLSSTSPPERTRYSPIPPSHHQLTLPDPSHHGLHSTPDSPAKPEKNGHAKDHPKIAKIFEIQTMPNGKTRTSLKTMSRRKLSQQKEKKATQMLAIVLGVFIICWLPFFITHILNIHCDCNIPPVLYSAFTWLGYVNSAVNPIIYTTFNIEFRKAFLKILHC
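PathHunter D2 cells, attached overnight at 37 deg C, received compound in DMSO plus dopamine at EC20 (50 nM final) for 90 min at 37 deg C. Beta-arrestin recruitment was read as luminescence after 1 h with detection reagent at ambient temperature.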
TRPML1 agonist = qHTS for Agonists of the Human Mucolipin Transient Receptor Potential 1 (TRPML1); Mucolipin-1 (Homo sapiens), Q9GZU1; TRPML1-expressing cells, Ca2+ dye fluorescence, FDSS; host cell line not named in the record; reference of the full effect not given here; activation, % (test concentration not listed); actives 0.12% (n = 410,000); AID 624414, 2012; in the data active = activation above about 50%; inconclusive = about 30% to 50%; inactive = below about 30%; also: 0% is about no effect; the text of the record puts the active cut at 80%
Target sequence (Q9GZU1 whole entry, looked up): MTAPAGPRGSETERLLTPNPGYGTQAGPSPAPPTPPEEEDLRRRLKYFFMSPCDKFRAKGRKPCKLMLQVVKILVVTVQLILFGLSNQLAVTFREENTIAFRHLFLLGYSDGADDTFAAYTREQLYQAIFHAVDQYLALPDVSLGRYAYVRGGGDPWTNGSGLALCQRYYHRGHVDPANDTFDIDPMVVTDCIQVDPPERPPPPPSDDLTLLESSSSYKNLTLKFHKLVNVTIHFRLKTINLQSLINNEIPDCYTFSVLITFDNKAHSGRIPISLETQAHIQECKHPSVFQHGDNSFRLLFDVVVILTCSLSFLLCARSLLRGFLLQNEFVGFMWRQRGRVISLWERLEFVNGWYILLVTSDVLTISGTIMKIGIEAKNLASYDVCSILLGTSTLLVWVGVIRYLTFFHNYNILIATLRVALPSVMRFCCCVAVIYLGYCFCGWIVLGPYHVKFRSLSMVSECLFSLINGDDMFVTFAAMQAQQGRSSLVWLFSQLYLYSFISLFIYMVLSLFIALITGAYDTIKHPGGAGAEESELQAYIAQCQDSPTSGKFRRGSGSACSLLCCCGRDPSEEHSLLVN
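Calcium fluorescence on an FDSS kinetic reader gave the read-out. Tet-induced TRPML1-DL cells were plated overnight, dye-loaded (Ca8 with quencher, 45-90 min, room temperature, dark), then read 110 s after compound addition, and again 110 s after 4uM final 54-4 (EC80).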
TRPML1 blocker = qHTS for Inhibitors of the Human Mucolipin Transient Receptor Potential 1 (TRPML1); TRPML1-inducible cells, Ca2+ dye fluorescence, FDSS; active compounds read low; inhibition of EC80 agonist-evoked calcium signal; activity change, negative = inhibition, % (test concentration not listed); actives 0.02% (n = 390,000); in the data active means activity change below about -50%; inconclusive means about -30% to -50%; inactive means above about -30%;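 also: stimulus is agonist 54-4 at its EC80 concentration; % is scaled to controls: 0 for no effect and ±100 for the full control effect; compound concentration not given in the record; the text of the record puts the active cut at -80%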
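Tet-induced TRPML1-DL cells loaded with Ca8 no-wash calcium dye were read kinetically on FDSS. Compound addition was followed by EC80 agonist 54-4 (4 uM final); inhibition was read over 110 s.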
CtBP-E1A blk = qHTS Assay for Inhibitors of the CtBP/E1A Interaction. CtBP / adenovirus E1A interaction (AlphaScreen). actives 0.49% (n = 340,000). activity change, % (concentration not given with the values). AlphaScreen GST-E1A/His-CtBP binding, 1536-well; active compounds read low; control for the full effect not named in the record; in the data active means activity change below about -65%; inconclusive means about -30% to -65%; inactive means above about -30%; also: % is scaled to controls: 0 for no effect and ±100 for the full control effect
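Protein mix (5X: 125 nM each GST-E1A, His-CtBP) was incubated with pinned compound 2 h at 37 deg C in dark, in 50 mM Tris pH 8.0 buffer with 300 mM NaCl. Glutathione donor and nickel acceptor beads followed; AlphaScreen signal read after 1 h.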
* = called active by the depositor; ? = inconclusive; · = not tested or not shown; & = joins results of further samples.

SMILES	Six1-Eya2 blk	TRPV1 potentiator	D2 potentiator	TRPML1 agonist	TRPML1 blocker	CtBP-E1A blk
CCNC(=O)C1(C)CCN(Cc2ccccc2-c2ccccc2)C1 (stereo unspecified)	1	·	-3	-0.9	·	5
O=C(NCCC1CCCCN1S(=O)(=O)c1ccccc1)C(=O)NCCN1CCOCC1 (stereo unspecified)	7	-5	-21	0.3	-13	1
Cc1nc2cc(C(F)(F)F)ccc2n1CCNc1nc(-c2ccc(F)cc2)cs1	0	-6	-4	-0.1	-4	-22
CCSC1=C(C#N)C(c2cccc(OC)c2)CC(=O)N1 (stereo unspecified)	6	-1	-25	0.8	12	0
Cc1ccc(N(C(=O)Cn2nnc(-c3ccc(C)o3)n2)C(C(=O)NC2CCCC2)c2ccncc2)cc1 (stereo unspecified)	4	4	-1	-0.1	14	-7
CCCS(=O)(=O)c1c(S(=O)(=O)CCC)c2cnccn2c1C(=O)c1ccc(F)cc1	1	9	-2	0.2	-5	-1
CC1CCN(S(=O)(=O)N2CCC(C(=O)NCc3cccs3)CC2)CC1	11	6	-5	4.0	4	-4
O=C(CC1SC(N2CCCCC2)=NC1=O)Nc1ccc(C(=O)NCc2ccccc2)cc1 (stereo unspecified)	2	·	2	0.3	15	11
CCOc1ccc(CCNC(=O)C2CCN(c3nn4c(=O)cc(C)nc4s3)CC2)cc1OCC	-6	5	24	-0.4	20	-2
CC1(C(=O)N2Cc3ccccc3C2)CCN1C(=O)C1(c2ccc(Cl)cc2)CC1 (stereo unspecified)	-11	·	-8	-0.5	·	6
COc1ccccc1Nc1ncc(C(=O)N2CCN(Cc3ccc(OC)c(OC)c3OC)CC2)c2ccccc12	5	6	10	2.4	10	6
Cc1ccc(/C=C2\SC(=S)N(CCC(=O)NCCCN3CCOCC3)C2=O)cc1	8	14	-4	-0.1	-2	-1
COc1ccccc1CCN=C(N)NS(=O)(=O)c1cc(F)ccc1F	8	8	-10	1.9	13	4
COCCNc1nc(NCCN2CCNC2=O)c2sccc2n1	6	·	-10	-0.3	·	9
CCC(=O)NCCc1nc2ccccc2n1Cc1ccccc1	0	-9	7	1.2	14	-2

Three compounds from above, sorted by their value in TRPML1 blocker, largest number first.
| structure | TRPML1 blocker |
| --- | --- |
| O=C(CC1SC(N2CCCCC2)=NC1=O)Nc1ccc(C(=O)NCc2ccccc2)cc1 (stereo unspecified) | 15 |
| COc1ccccc1CCN=C(N)NS(=O)(=O)c1cc(F)ccc1F | 13 |
| COc1ccccc1Nc1ncc(C(=O)N2CCN(Cc3ccc(OC)c(OC)c3OC)CC2)c2ccccc12 | 10 |

Next part:
SMILES	Six1-Eya2 blk	TRPV1 potentiator	D2 potentiator	TRPML1 agonist	TRPML1 blocker	CtBP-E1A blk
Nc1ccc(/C=C/c2ccc3ncccc3c2)cc1	11	29	-10	0.1&-0.5	-6	·
COc1ccccc1/C=N/OCc1cc(C(C)=O)ccc1OC	3	13	-5	0.8	2	15
O=C(CCS(=O)(=O)c1ccc(Br)cc1)N1CCCCCC1	?	-3	-4	0.1	-6	·
C#CCOc1ccc(/C=N/NC(=O)c2cccnc2)cc1OCC	?	8	6	-0.9	-9	?
CC[C@]12c3[nH]c4ccc(Cl)cc4c3CCN1C(=O)[C@@H](CC(=O)NCCC1=CCCCC1)C[C@@H]2C(=O)N1CCN(C(=O)C2CC2)CC1	2	·	-3	1.7	-2	0
COc1ccc(C(=O)Nc2ccc(S(=O)(=O)NC(C)=O)cc2)cc1[N+](=O)[O-]	-8	-12	-11	0.0	-5	-3
O=C1CC(c2ccccc2)Cc2nc3ncnn3cc21 (stereo unspecified)	1	8	4	15	-6	8
O=C(NNc1cccc(Cl)n1)Nc1ccc(F)cc1	4	5	0	-0.4	-2	4
CCOc1ccc(C(=O)N2CCN(S(=O)(=O)c3ccc4c(c3)OCCO4)CC2)cc1OCC	-6	-12	-5	-0.5	5	4
CCOc1ccc(-n2c(SCC(N)=O)nnc2-c2cccnc2)cc1	10	7	4	0.4	19	-3
CC(=O)c1cccc(NC(=O)C2CCCN2S(=O)(=O)c2cccc3cccnc23)c1 (stereo unspecified)	7	?	-7	0.0	5	-4
CCn1c(=O)c(C(=O)CN2CCN(S(=O)(=O)c3ccc(C)cc3C)CC2)c(N)n(Cc2ccccc2)c1=O	-13	4	7	-0.1	12	-2
COc1ccccc1C1c2ccc3ccccc3c2Oc2ncn(CCCO)c(=N)c21 (stereo unspecified)	-1	22	1	0.2	-3	-3
O=C(NCCCN1CCCC1=O)c1ccc(NS(=O)(=O)c2ccccc2)cc1	-1	?	-7	-0.6	-9	3
CC(Sc1nnc(-c2ccccc2F)n1C1CC1)C(=O)N1CCCC1 (stereo unspecified)	3	6	-2	1.8	-2	-6
NC(=S)Nc1cccc2[nH]ncc12	1	9	-3	-0.7	42	-2
O=[N+]([O-])CC1(n2nc3ccccc3n2)CCCCC1	0	1	-17	-0.8	6	3
O=C(CO/N=C/c1ccc(OC(F)F)cc1)NCc1ccco1	-10	-30	-2	-0.5	-15	-7
CCOC(=O)c1ccc(NC(=O)c2n[nH]c(=O)c3ccccc23)cc1	10	0	-6	2.4	17	-3
CCCCNC(=O)c1onc(CSc2ccc(OC)cc2)c1C(=O)O	-7	11	-3	0.8	-19	0
Cn1cc(C(=O)c2cccc(Cl)c2)cc1C#N	2	-12	-2	-0.2	21	0
O=C1NC(O)CCN1C1CC(O)C(CO)O1 (stereo unspecified)	-5	·	3	-0.3	·	0
O=C(COC(=O)[C@H](Cc1ccccc1)NS(=O)(=O)c1ccccc1F)NC1CCCCC1	-2	-2	5	1.6	2	0
CC(=O)Oc1ccc(/C=C2/C(=O)N(c3ccccc3)N=C2C)cc1	-15	-9	-10	-0.5	26	-5
COc1cc(NC(=O)CSc2nccc(C)n2)c(C(=O)O)cc1OC	3	-8	-15	0.0	-9	7
CCOC(=O)COc1c(C(=O)OC)sc2ncccc12	9	-7	-24	-1.0	-17	-10
C#CCNC(=O)c1cccn1-c1ncc(C(F)(F)F)cc1Cl	-8	2	-1	0.6	77	-12
CS(=O)(=O)c1ccc(Nc2nc(C(N)Cc3ccccc3)cs2)cc1 (stereo unspecified)	3	·	-6	0.4	·	-7
O=C(CN1C(=O)COc2ccccc21)Nc1ccc2c(c1)OCCO2	1	-17	-8	-0.4	-5	6
Cc1cc(=O)cc(C)n1-c1ccc(Cl)cc1	-2	-1	-2	-1.2	21	-9
CC1=CC(=C(C#N)C#N)c2ccccc2N1C	-15	-21	-8	-0.3	-8	-14
CCc1ccc2c(CC(=O)NNC(=O)c3ccncc3)coc2c1	2	3	2	3.0	-25	4
C#CCOCCOCCOCCNc1nc(N2CCN(C(=O)[C@H]([C@@H](C)CC)n3cc(CCCN=C(N)N)nn3)CC2)nc(N2CCN(C(=O)[C@H](CCCCN)n3cc(CC(C)O)nn3)CC2)n1 (stereo partly specified)	5	-35	-15	-0.6	19	0
CCOC(=O)N1CCN(C(=O)C(=O)NN)CC1	8	9	-4	-0.1	-21	4
O=S(=O)(c1ccc(Cl)cc1)N1CN(CC2CCCO2)c2nc3ccccc3nc21 (stereo unspecified)	-4	-17	-5	1.5	-9	-5
Nn1c(Cc2cccc3ccccc23)nnc1SCC(=O)NCC1CCCO1 (stereo unspecified)	0	4	-12	-0.1	0	-17
Cc1nnc2ccc(-c3cccc(NS(=O)(=O)c4cc(F)ccc4F)c3)nn12	7	-9	-5	3.8	32	-1
COc1ccc(OCC(=O)OCC(=O)NC2CC2)cc1	0	-8	-1	3.9	13	13
CCC(=O)Nc1nnc(S(=O)(=O)N(CC)c2cc(C)cc(C)c2)s1	8	11	-3	-1.0	2	4
O=C(NCC(=O)N1CCN(c2ncccn2)CC1)c1ccccc1OC(F)F	0	·	1	-0.6	-5	7
CCC(=O)N1CCc2cc(S(=O)(=O)NCCC(=O)Nc3ccccc3C)ccc21	-1	-2	5	-0.2	5	-16
CC1CN(c2c3c(nc4ncnn24)CCCC3)CC(C)O1 (stereo unspecified)	21	-23	-22	0.2	-15	0
Cc1noc(-c2ccc(C(F)(F)F)cc2)c1NC(=O)Nc1ccc(Cl)cc1	8	-19	1	2.7	24	·
CCOC(=O)c1[nH]cnc1C(=O)Nc1ccc([N+](=O)[O-])cc1	-10	18	-1	1.2	-11	-7
CCCCc1ccc(NC(=S)N2CCN(c3ncccn3)CC2)cc1	0	-15	-2	1.4	17	4
CN(C)c1nc(N)c([N+](=O)[O-])c(NCCO)n1	4	5	-10	-0.3	28	4
Cc1cc2occ(CC(=O)NC3(C)CCS(=O)(=O)C3)c2cc1C (stereo unspecified)	-14	-4	-33	0.9	8	-8
O=C(N/N=C/c1ccc2c(c1)OCO2)c1cc(-c2ccc(F)cc2)nc2ccccc12	-18	12	-19	-0.5	5	-23
NC(=O)NC(CC(=O)NCCc1ccc(S(N)(=O)=O)cc1)c1ccccc1Cl (stereo unspecified)	8	-4	-12	-0.9	-8	·
COc1ccc(OC)c(Nc2cc3ccccc3c(=O)[nH]2)c1	-6	·	14	2.4	18	?
CN(C)N=Nc1nc2c(c(=O)n(C)c(=O)n2C)n1CC1CO1 (stereo unspecified)	5	24	-13	0.0	23	1
CC(=O)c1ccc(N2C(=O)[C@@H]3[C@H](C2=O)[C@H]2c4ccccc4C=NN2[C@@H]3C(C)=O)cc1	3	4	-2	-0.2	0	6
CCN(CC)C(=O)Oc1ccc2cc(Br)ccc2c1	17	2	12	0.7	47	13
CN(C)CCn1c2c(c(SCC(=O)Nc3cccc(C(F)(F)F)c3)nc1=O)CCCC2	-6	8	-5	0.9	-15	-17
COc1ccc(C)cc1NC(=O)c1nn(C)cc1Br	-2	-10	-16	-0.7	-2	·
COCCN(C(=O)CNC(=O)c1cccs1)C(C(=O)NC1CCCCC1)c1ccco1 (stereo unspecified)	0	?	-26	1.1	-13	2
CCN1CCS/C1=C\C=C\C1=[N+](CC)CCS1	13	5	-2	0.6	-26	0
COc1ccc(NC(=O)CCN2C(=O)c3ccccc3C2=O)c(OC)c1	17	3	-4	-0.8	-15	-5

Record cards, from the list above. Values in the order: Six1-Eya2 blk, TRPV1 potentiator, D2 potentiator, TRPML1 agonist, TRPML1 blocker, CtBP-E1A blk
`COCCN(C(=O)CNC(=O)c1cccs1)C(C(=O)NC1CCCCC1)c1ccco1` (stereo unspecified) in the list: 0, ?, -26, 1.1, -13, 2
`CN(C)N=Nc1nc2c(c(=O)n(C)c(=O)n2C)n1CC1CO1` (stereo unspecified) in the list: 5, 24, -13, 0.0, 23, 1
`CC(=O)c1ccc(N2C(=O)[C@@H]3[C@H](C2=O)[C@H]2c4ccccc4C=NN2[C@@H]3C(C)=O)cc1` in the list: 3, 4, -2, -0.2, 0, 6
`COc1ccc(C)cc1NC(=O)c1nn(C)cc1Br` in the list: -2, -10, -16, -0.7, -2, ·
`COc1ccc(OC)c(Nc2cc3ccccc3c(=O)[nH]2)c1` in the list: -6, ·, 14, 2.4, 18, ?

Screening results: PubChem BioAssay, National Center for Advancing Translational Sciences (NCATS)
